A1 apoptosis 2 = compounds inhibiting A1, read as caspase activation. 24,000 tested, under 10 active. caspase activation, % (concentration not given with the values). MEF A1-2A-BIM cells, caspase-Glo luminescence, 3 h; percent of clofoctol response, DMSO zero; in the data active means caspase activation above about 5.9%;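 further: wells of about 30 µL received 50 nL stock; the first replicate is given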
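Test system – A1-2A-BIM-expressing MEF cells · Input – 2500 cells/well · Medium – RPMI-1640 growth medium with 10% FBS · Compound dosing – 50 nL pinned compound · Timing – 3 h compound exposure at 37 °C · Technique – Caspase-Glo luminescence (DEVD substrate) · Evaluation – Caspase-3/7 activity from luminescence increase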
* marks the source's active call; other numbers are inactive results.

SMILES	A1 apoptosis 2
C[C@@H]1CN([C@H](C)CO)C(=O)Cc2cc(NC(=O)C3CC3)ccc2O[C@@H]1CN(C)Cc1ccccc1	-0.6
C[C@H](CO)N1C[C@H](C)[C@H](CN(C)C(=O)Nc2ccccc2)Oc2ccc(NC(=O)Nc3ccccc3)cc2CC1=O	0.0
C[C@@H]1CN([C@H](C)CO)C(=O)c2cccc(NC(=O)c3nc4ccccc4s3)c2O[C@H]1CN(C)Cc1ccncc1	-1.0
COc1ccc(S(=O)(=O)Nc2ccc3c(c2)CC(=O)N([C@H](C)CO)C[C@@H](C)[C@H](CN(C)Cc2ccccc2)O3)cc1	-0.2
C#CCNC(=O)C1=C[C@H](c2ccc(C(F)(F)F)cc2)[C@@H](CCCO)[C@H](OCC)O1	0.5
C[C@H](CO)N1C[C@H](C)[C@H](CN(C)S(=O)(=O)c2ccc(F)cc2)Oc2ncc(C#Cc3cccc(F)c3)cc2C1=O	0.3
COc1ccc(S(=O)(=O)Nc2ccc3c(c2)CC(=O)N([C@H](C)CO)C[C@@H](C)[C@H](CN(C)Cc2ccc(C(=O)Nc4ccccc4N)cc2)O3)cc1	-0.8
CC(C)NC(=O)N(C)C[C@@H]1Oc2c(NC(=O)Nc3ccccc3)cccc2C(=O)N([C@H](C)CO)C[C@@H]1C	-0.1
COc1ccc(NC(=O)N(C)C[C@H]2OCCCC[C@@H](C)Oc3ccc(NC(=O)Nc4c(C)noc4C)cc3C(=O)N([C@H](C)CO)C[C@@H]2C)cc1	1.8
Cc1ccc(S(=O)(=O)N(C)C[C@@H]2Oc3ccc(NC(=O)c4ccncc4)cc3CC(=O)N([C@@H](C)CO)C[C@H]2C)cc1	0.7
COc1ccc(S(=O)(=O)Nc2cccc3c2O[C@H](CN(C)C)[C@H](C)CN([C@H](C)CO)C3=O)cc1	0.9
C[C@H](CO)N1C[C@H](C)[C@@H](CN(C)S(=O)(=O)c2cn(C)cn2)Oc2ccc(NC(=O)Cc3ccccc3)cc2CC1=O	-0.3
Cc1noc(C)c1NC(=O)N(C)C[C@H]1Oc2c(NS(=O)(=O)c3cn(C)cn3)cccc2C(=O)N([C@@H](C)CO)C[C@@H]1C	-0.1
COc1ccc(NC(=O)N(C)C[C@@H]2Oc3ccc(NC(=O)Cn4cnnn4)cc3C(=O)N([C@@H](C)CO)C[C@H]2C)cc1	-1.2
C[C@@H]1CN([C@@H](C)CO)C(=O)c2cccc(NS(=O)(=O)c3cccs3)c2O[C@H]1CN(C)Cc1ccc(-c2ccccc2)cc1	-2.0
C[C@H]1CN([C@@H](C)CO)C(=O)c2cc(N(C)C)ccc2O[C@H]1CN(C)C	0.0
C[C@H](CO)N1C[C@H](C)[C@@H](CN(C)C)Oc2c(NC(=O)c3ccncc3)cccc2C1=O	-1.3
C[C@@H]1CN([C@@H](C)CO)C(=O)Cc2cc(NS(=O)(=O)c3ccc(Cl)cc3)ccc2O[C@@H]1CN(C)C	0.7
CC(C)NC(=O)N(C)C[C@@H]1Oc2ccc(NC(=O)CCCN(C)C)cc2C(=O)N([C@@H](C)CO)C[C@H]1C	-1.1
COc1ccc(S(=O)(=O)N(C)C[C@H]2Oc3c(NC(=O)Nc4ccccc4)cccc3C(=O)N([C@H](C)CO)C[C@H]2C)cc1	-0.4
COc1ccc(CN(C)C[C@H]2OCCCC[C@H](C)Oc3ccc(NC(=O)Nc4ccc5c(c4)OCO5)cc3C(=O)N([C@@H](C)CO)C[C@H]2C)cc1	0.2
COc1ccc(S(=O)(=O)N(C)C[C@@H]2Oc3ncc(-c4cccc(OC)c4)cc3C(=O)N([C@H](C)CO)C[C@@H]2C)cc1	-0.3
CNC[C@H]1Oc2ccc(NC(=O)Cn3cnnn3)cc2C(=O)N([C@@H](C)CO)C[C@@H]1C	-0.4
C[C@@H]1CCCCO[C@H](CN(C)Cc2ccc(C(F)(F)F)cc2)[C@H](C)CN([C@@H](C)CO)C(=O)c2cc(NS(=O)(=O)c3cn(C)cn3)ccc2O1	-0.7
Cc1noc(C)c1NC(=O)Nc1ccc2c(c1)C(=O)N([C@H](C)CO)C[C@H](C)[C@@H](CN(C)Cc1ccccc1)O2	-0.1
C[C@@H]1CN([C@H](C)CO)C(=O)c2cccc(NS(=O)(=O)c3cn(C)cn3)c2O[C@@H]1CN(C)Cc1ccc(Cl)c(Cl)c1	0.0
CC(C)NC(=O)N(C)C[C@H]1Oc2c(NS(=O)(=O)c3ccc(Cl)cc3)cccc2C(=O)N([C@H](C)CO)C[C@@H]1C	-1.2
C[C@@H]1CN([C@H](C)CO)C(=O)c2cc(NS(=O)(=O)c3ccccc3)ccc2O[C@@H](C)CCCCO[C@H]1CN(C)S(=O)(=O)c1cccs1	-0.3
COc1ccc(CN(C)C[C@H]2Oc3c(NS(=O)(=O)c4ccc(F)cc4)cccc3C(=O)N([C@@H](C)CO)C[C@@H]2C)cc1	-1.9
C[C@@H]1CN([C@@H](C)CO)C(=O)c2cccc(NS(=O)(=O)c3ccccc3)c2O[C@@H]1CN(C)Cc1ccc(Cl)c(Cl)c1	0.6
C[C@@H]1CCCCO[C@@H](CN(C)C(=O)Nc2ccc(C(F)(F)F)cc2)[C@@H](C)CN([C@H](C)CO)C(=O)c2cc(NS(C)(=O)=O)ccc2O1	-1.5
COc1ccc(S(=O)(=O)N(C)C[C@@H]2OCCCC[C@@H](C)Oc3ccc(NC(=O)NC(C)C)cc3C(=O)N([C@H](C)CO)C[C@H]2C)cc1	0.2
C[C@H](CO)N1C[C@H](C)[C@@H](CN(C)C)OCCCC[C@H](C)Oc2ccc(NC(=O)Cc3ccccc3)cc2C1=O	0.7
C[C@@H]1CN([C@@H](C)CO)C(=O)c2cc(NS(=O)(=O)c3cn(C)cn3)ccc2O[C@@H]1CN(C)CC1CC1	0.2
O=C(NO)c1cccc(C(=O)N/N=C/c2ccc(O)cc2)c1	-0.1
Cc1noc(C)c1S(=O)(=O)N(C)C[C@H]1Oc2ccc(NC(=O)Cn3cnnn3)cc2CC(=O)N([C@@H](C)CO)C[C@H]1C	-0.9
C[C@H](CO)N1C[C@H](C)[C@@H](CN(C)S(=O)(=O)c2cn(C)cn2)Oc2ccc(NC(=O)CCCCCC(=O)Nc3ccccc3N)cc2C1=O	1.5
Cc1ccc(S(=O)(=O)Nc2cccc3c2O[C@@H](CN(C)Cc2ccccc2)[C@H](C)CN([C@@H](C)CO)C3=O)cc1	-1.2
C[C@H](CO)N1C[C@H](C)[C@@H](CN(C)S(=O)(=O)c2ccc(F)cc2)OCCCC[C@H](C)Oc2ccc(NC(=O)CCC(F)(F)F)cc2C1=O	1.2
C[C@H]1CN([C@@H](C)CO)C(=O)c2cccc(NS(=O)(=O)c3ccc(F)cc3)c2O[C@@H]1CN(C)S(=O)(=O)c1ccc(F)cc1	-0.5
COc1ccc(S(=O)(=O)Nc2ccc3c(c2)CC(=O)N([C@@H](C)CO)C[C@@H](C)[C@H](CN(C)C(=O)NC(C)C)O3)cc1	-1.9
C[C@H](CO)N1C[C@H](C)[C@H](CN(C)Cc2cccc(C(F)(F)F)c2)OCc2cn(nn2)CCCC1=O	0.2
C[C@H](CO)N1C[C@H](C)[C@H](CN(C)C(=O)Nc2ccc3c(c2)OCO3)Oc2c(NC(=O)Nc3ccc4c(c3)OCO4)cccc2C1=O	-0.7
C[C@@H]1CCCCO[C@H](CN(C)C(=O)c2ccncc2)[C@H](C)CN([C@H](C)CO)C(=O)c2cc(NS(C)(=O)=O)ccc2O1	0.1
COc1ccccc1S(=O)(=O)N(C)C[C@@H]1OCc2cn(nn2)CCCC(=O)N([C@@H](C)CO)C[C@@H]1C	1.2
CC(C)NC(=O)N(C)C[C@H]1OCCCC[C@@H](C)Oc2ccc(NC(=O)CCCN(C)C)cc2C(=O)N([C@H](C)CO)C[C@@H]1C	1.2
COc1ccc(NC(=O)Nc2ccc3c(c2)CC(=O)N([C@H](C)CO)C[C@H](C)[C@@H](CN(C)Cc2ccc(C(F)(F)F)cc2)O3)cc1	0.7
CC(C)NC(=O)N(C)C[C@@H]1Oc2ccc(NC(=O)Cn3cnnn3)cc2C(=O)N([C@H](C)CO)C[C@H]1C	-0.3
COc1ccc(NC(=O)N(C)C[C@H]2OCCCC[C@H](C)Oc3ccc(NC(=O)c4ccncc4)cc3C(=O)N([C@H](C)CO)C[C@@H]2C)cc1	-1.8
C[C@@H]1CN([C@H](C)CO)C(=O)c2cccc(NS(C)(=O)=O)c2O[C@@H]1CN(C)S(=O)(=O)c1cccs1	-0.5
CN1CCN(C(=O)C2=C[C@@H](C3CCCCC3)C[C@@H](OCCCCO)O2)CC1	0.6
C[C@@H]1CCCCO[C@@H](CN(C)Cc2ccncc2)[C@H](C)CN([C@H](C)CO)C(=O)c2cc(NC(=O)NC3CCCCC3)ccc2O1	0.9
Cc1ccc(S(=O)(=O)Nc2ccc3c(c2)C(=O)N([C@@H](C)CO)C[C@H](C)[C@@H](CN(C)S(=O)(=O)c2ccc(F)cc2)OCCCC[C@H](C)O3)cc1	0.9
C[C@H](CO)N1C[C@H](C)[C@@H](CN(C)C(=O)Nc2ccc(C(F)(F)F)cc2)Oc2ccc(NC(=O)c3ccncc3)cc2CC1=O	-0.4
CC(C)NC(=O)Nc1ccc2c(c1)C(=O)N([C@H](C)CO)C[C@H](C)[C@H](CN(C)C(=O)c1ccccc1)OCCCC[C@@H](C)O2	-0.3
COc1ccc(NC(=O)Nc2ccc3c(c2)C(=O)N([C@H](C)CO)C[C@H](C)[C@@H](CN(C)C(=O)Cc2ccccc2)OCCCC[C@@H](C)O3)cc1	-0.5
Cc1noc(C)c1NC(=O)Nc1cccc2c1O[C@@H](CN(C)Cc1ccc(Cl)c(Cl)c1)[C@@H](C)CN([C@H](C)CO)C2=O	-1.6
C[C@@H]1CN([C@H](C)CO)C(=O)c2cc(NC(=O)CCCN(C)C)ccc2O[C@H]1CN(C)CC1CCCCC1	0.2
COc1ccc(CN(C)C[C@H]2OCCCC[C@@H](C)Oc3ccc(NS(=O)(=O)c4ccc(OC)cc4)cc3C(=O)N([C@@H](C)CO)C[C@H]2C)cc1	2.0
C[C@@H]1CCCCO[C@@H](CN(C)C(=O)Cc2ccccc2)[C@@H](C)CN([C@H](C)CO)C(=O)c2cc(NS(=O)(=O)c3cccs3)ccc2O1	-0.7

Next part:
SMILES	A1 apoptosis 2
O=C(CCCCCC(=O)Nc1ccccc1O)N/N=C/[C@@H](O)[C@H](O)[C@H](O)CO	0.9
Cc1noc(C)c1NC(=O)Nc1ccc2c(c1)C(=O)N([C@H](C)CO)C[C@H](C)[C@H](CN(C)Cc1ccc(C(=O)O)cc1)O2	-0.3
CC(C)NC(=O)N(C)C[C@@H]1Oc2ccc(NC(=O)CCCCCC(=O)Nc3ccccc3N)cc2CC(=O)N([C@H](C)CO)C[C@@H]1C	0.8
COc1ccc(S(=O)(=O)Nc2ccc3c(c2)CC(=O)N([C@H](C)CO)C[C@H](C)[C@@H](CN(C)S(C)(=O)=O)O3)cc1	-0.6
C[C@H](CO)N1C[C@H](C)[C@H](CN(C)Cc2ccccc2)Oc2ccc(NS(=O)(=O)c3cccs3)cc2CC1=O	0.7
Cc1ccc(S(=O)(=O)N(C)C[C@@H]2Oc3ccc(NC(=O)Cn4cnnn4)cc3C(=O)N([C@@H](C)CO)C[C@@H]2C)cc1	0.0
O=C(O)CCCCCC(=O)N/N=C/c1ccccc1[N+](=O)[O-]	0.7
Cc1noc(C)c1S(=O)(=O)Nc1ccc2c(c1)C(=O)N([C@@H](C)CO)C[C@H](C)[C@@H](CN(C)Cc1ccccc1)OCCCC[C@H](C)O2	0.0
Cc1noc(C)c1S(=O)(=O)Nc1ccc2c(c1)CC(=O)N([C@@H](C)CO)C[C@H](C)[C@H](CN(C)C(=O)Nc1cccc3ccccc13)O2	0.3
COc1ccc(NC(=O)Nc2ccc3c(c2)C(=O)N([C@@H](C)CO)C[C@H](C)[C@H](CN(C)CC2CCCCC2)OCCCC[C@H](C)O3)cc1	0.1
Cc1noc(C)c1NC(=O)Nc1cccc2c1O[C@@H](CN(C)S(=O)(=O)c1ccc(Cl)cc1)[C@@H](C)CN([C@@H](C)CO)C2=O	-0.5
CNC[C@@H]1Oc2ccc(NS(C)(=O)=O)cc2CC(=O)N([C@@H](C)CO)C[C@H]1C	-0.3

Molecules listed so far containing two or more sulfur atoms:
SMILES	A1 apoptosis 2
C[C@@H]1CN([C@@H](C)CO)C(=O)c2cccc(NS(=O)(=O)c3cccs3)c2O[C@H]1CN(C)Cc1ccc(-c2ccccc2)cc1	-2.0
C[C@@H]1CN([C@H](C)CO)C(=O)c2cc(NS(=O)(=O)c3ccccc3)ccc2O[C@@H](C)CCCCO[C@H]1CN(C)S(=O)(=O)c1cccs1	-0.3
C[C@H]1CN([C@@H](C)CO)C(=O)c2cccc(NS(=O)(=O)c3ccc(F)cc3)c2O[C@@H]1CN(C)S(=O)(=O)c1ccc(F)cc1	-0.5
C[C@@H]1CN([C@H](C)CO)C(=O)c2cccc(NS(C)(=O)=O)c2O[C@@H]1CN(C)S(=O)(=O)c1cccs1	-0.5
Cc1ccc(S(=O)(=O)Nc2ccc3c(c2)C(=O)N([C@@H](C)CO)C[C@H](C)[C@@H](CN(C)S(=O)(=O)c2ccc(F)cc2)OCCCC[C@H](C)O3)cc1	0.9
C[C@@H]1CCCCO[C@@H](CN(C)C(=O)Cc2ccccc2)[C@@H](C)CN([C@H](C)CO)C(=O)c2cc(NS(=O)(=O)c3cccs3)ccc2O1	-0.7
COc1ccc(S(=O)(=O)Nc2ccc3c(c2)CC(=O)N([C@H](C)CO)C[C@H](C)[C@@H](CN(C)S(C)(=O)=O)O3)cc1	-0.6
C[C@H](CO)N1C[C@H](C)[C@H](CN(C)Cc2ccccc2)Oc2ccc(NS(=O)(=O)c3cccs3)cc2CC1=O	0.7

This is a subset (hit frequency here may not be typical).
